# Screening data deposited in PubChem by several laboratories.
# RN4220 kill = S. aureus RN4220 growth inhibition | OD600, 16 h | 0.33% of 330,000 active | inhibition, % (test concentration not listed);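 active = z-score of -3 or lower and OD600 up to 0.18 on both plates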;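 note: plate controls were untreated cells for no effect and reference antibiotic for full effect; stock transfer was 100 nL into about 80 µL; one replicate is shown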
# PrP UTR inh = suppresses PrP 5' UTR mRNA reporter expression. inhibition, % (no concentration beside the values). 0.35% of 340,000 active. cell-based PrP 5' UTR mRNA reporter, plate reader;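 active = every replicate at 50% or more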;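 note: 0 = median of the neutral control wells; tested in H4 reporter cells; numbers are from one replicate; inactives centre near -14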
# BJeLR viability = kills HRASV12-expressing BJeLR cells; BJeLR (HRASV12) viability, CellTiter-Glo ATP luminescence, 48 h; reference of the scale not given here; inhibition, % (concentration not given with the values); 0.17% of 300,000 active;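 active = replicate mean above 50%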;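 note: 50 nL library stock added to about 25 µL; numbers are from one replicate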
# Mtb hypoxia rep = Mtb hypoxia fluorescent reporter inhibition; M. tuberculosis hypoxia-regulated fluorescent reporter, fluorescence; fluorescence inhibition, % (no concentration beside the values); 0.1% of 300,000 active; AID 1159583;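 active = 35 to 45% if threefold the growth effect, above 45% if 1.5-fold the growth effect; inactive = the rest, general growth blockers included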;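 note: wells of about 50 µL received 100 nL stock; 0% = vehicle wells and 100% = reference inhibitor wells; whole bacteria with a GFP reporter of the hypoxia response; strong numbers were not always called active; many hits fall short of the cut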
# ugtP null kill = compounds lethal to S. aureus RN4220 ugtP deletion mutant | OD600 growth, 16 h; some inactives read as strong as hits | growth inhibition, % (no concentration beside the values) | 0.54% of 330,000 active | AID 1259309;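 active = z-score under -3 and OD600 up to 0.15 on both plates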;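 note: plate controls were untreated wells for no effect and antibiotic for full effect; wells of about 80 µL received 100 nL stock; the first replicate is given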
# Autofluor counter = compound fluorescence in toxin protease inhibitor counterscreen | compound autofluorescence counterscreen, microsphere flow cytometry; stronger effect = higher value | fluorescence intensity (no concentration beside the values) | 3.1% of 360,000 active;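 active = at least 3 SD above the mean of all compounds, about 16000 in these data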;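 note: 100 nL of 1 mM stock went into each well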
# Mtb hypoxia rep growth = further read-out of Mtb hypoxia rep, marked with its call; growth inhibition, %; measured here: M. tuberculosis growth (absorbance);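 0% = vehicle and 100% = reference antibiotic; read after six days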
# Numbers without * were called inactive; x = no result given.
SMILES,RN4220 kill,PrP UTR inh,BJeLR viability,Mtb hypoxia rep,Mtb hypoxia rep growth,ugtP null kill,Autofluor counter
CSc1nc2ccsc2c(=O)n1-c1cccnc1,3.8,-24,2,4,12,-4,4223
Nc1nccnc1C(=O)OCC(=O)C12CC3CC(CC(C3)C1)C2,5.1,-23,-14,12,7,-1,7501
CC(=O)N1CC(=O)Nc2ccc(C)cc2C1c1ccccc1 (centres undefined),4.8,-16,-4,-5,0,5,3834
CC1CCCCN1C(=O)CSCC(=O)Nc1nc(-c2cccs2)cs1 (centres undefined),-6.5,-14,8,7,8,-6,5529
Cc1cc(C)cc(OCC(=O)Nc2nonc2NC(=O)COc2cc(C)cc(C)c2)c1,-6.3,-51,7,-10,3,-25,18944*
COc1ccc(C=NN2CCN(Cc3ccccc3Cl)CC2)cc1,-0.7,x,x,-5,9,1,x
COC(=O)c1ccc(CNCC(=O)Nc2ccc(C(=O)OC)cc2)cc1,7.3,1,2,2,4,-4,1951
Cc1ccc(C(=O)NC2CC3CCCC(C2)N3C(=O)NC2CCCCC2)cc1 (centres undefined),-4.0,x,-4,-3,-13,3,x
Cc1ccc(CN(N=Nc2nonc2N)c2nonc2N)c(C)c1,1.6,-22,9,1,-5,-11,4429
O=C(CCN1C(=O)/C(=C/c2ccccc2Cl)SC1=S)NCCc1ccc(O)cc1,-1.6,-18,11,6,5,-2,5213
O=C(O)CC/C(=C\c1cc2c(cc1Br)OCO2)c1nc2ccccc2s1,16,-8,-9,1,8,-11,3599
COc1ccc(-c2cn3c(C)c(C(=O)NCc4ccc5c(c4)OCO5)sc3n2)cc1,18,-19,-3,-4,0,8,5620
Cc1cc(C(=O)NNC(=S)Nc2ccccc2)nn1C,3.8,-25,2,2,2,2,4639
O=C(CSCC(=O)OCC(=O)c1ccc(Br)cc1)Nc1cccc2ccccc12,5.9,-40,2,13,7,7,9238
S=C(NCc1ccc(Cl)cc1)Nc1ccc(Cl)cc1Cl,-7.9,-22,-4,10,1,-26,2114
Cc1ccccc1C1CC(c2ccc(Br)cc2)Nc2nc(N)nn21 (centres undefined),5.1,9,0,x,x,10,6042
CNC(=S)N/N=C/c1ccc(-c2ccc(Cl)c([N+](=O)[O-])c2)o1,x,-14,1,x,x,x,4841
CCC(=O)N1CCc2cc(S(=O)(=O)N3CCN(c4ccccc4)CC3)ccc21,3.9,-18,-7,6,-8,10,4588
CC1CCCN(Cc2nc3c(c(=O)n(C)c(=O)n3C)n2Cc2c(F)cccc2Cl)C1 (centres undefined),-5.2,-15,14,5,12,-6,7179
COc1ccc(OC)c(NC(=S)N2c3ccccc3CC2C)c1 (centres undefined),2.8,7,-1,10,2,8,4156

# The closing four entries of the part before lead into the next.
SMILES,RN4220 kill,PrP UTR inh,BJeLR viability,Mtb hypoxia rep,Mtb hypoxia rep growth,ugtP null kill,Autofluor counter
CNC(=S)N/N=C/c1ccc(-c2ccc(Cl)c([N+](=O)[O-])c2)o1,x,-14,1,x,x,x,4841
CCC(=O)N1CCc2cc(S(=O)(=O)N3CCN(c4ccccc4)CC3)ccc21,3.9,-18,-7,6,-8,10,4588
CC1CCCN(Cc2nc3c(c(=O)n(C)c(=O)n3C)n2Cc2c(F)cccc2Cl)C1 (centres undefined),-5.2,-15,14,5,12,-6,7179
COc1ccc(OC)c(NC(=S)N2c3ccccc3CC2C)c1 (centres undefined),2.8,7,-1,10,2,8,4156
CC1CCCN(C(=S)Nc2ccc(Nc3ccccc3)cc2)C1 (centres undefined),-1.0,-65,-13,11,7,-5,4494
COc1ccc(C(=O)COc2ccc3c(C)cc(=O)oc3c2)cc1,3.8,-20,15,-4,-14,7,4020
COc1ccc(OCC(=O)NN=CC2CC=CCC2)cc1 (centres undefined),2.9,x,x,-2,5,8,x
CCc1ccc(N2CC(C(=O)Nc3cc(C)on3)CC2=O)cc1 (centres undefined),9.6,-10,-10,7,-1,3,3569
O=C(NN1C(=O)C2C3C=CC([C@@H]2C1=O)C31CC1)c1ccccc1 (some centres undefined),8.5,8,-6,-1,8,-4,6044
CCOC(=O)c1cc(S(=O)(=O)N2CCN(C3CCCCC3)CC2)cn1C,1.8,-10,-4,7,5,3,5140
CN(C)C(CNC(=O)c1ccc2nc[nH]c2c1)c1ccccc1 (centres undefined),-0.1,-62,-2,18,9,5,3967
CSc1ccccc1NC(=O)c1c(Br)cnn1C,1.5,-18,-6,x,x,0,2653
COc1cc(NCc2ccccc2)c2ncn(Cc3ccccc3)c2c1,-2.9,18,x,-1,5,3,3345
O=C(c1ccc2c(=O)n(Cc3ccc(Cl)cc3)c(=S)[nH]c2c1)N1CCOCC1,-8.1,11,2,-3,8,2,5054
Cn1cc(CC(=O)Nc2cccc(C#N)c2)c2ccccc21,-0.7,2,4,x,x,-1,2890
O=C(COC(=O)c1nc(Cl)ccc1Cl)Nc1ccc(Cl)cc1,-2.4,-6,x,-4,-2,-8,4532
Nc1ccc(S(=O)(=O)NN=Cc2ccccc2[N+](=O)[O-])cc1,3.7,-15,x,5,2,7,3544
Cc1cccc(CSc2nc3c(c(-c4cccs4)c2C#N)CN(C)CC3)c1,0.4,-22,3,9,6,24,2183
Cc1nn(-c2ccccc2)c(-c2ccccc2)c1C(=O)O,1.8,-11,-4,x,x,10,4734
CCCCN(C)C(=O)CS(=O)(=O)Cc1nc(-c2cccc(OC)c2)oc1C,-9.8,-4,4,6,10,-1,4752
COc1ccc(CCN2CC(C(=O)NCCc3ccc(C)cc3)CC2=O)cc1OC (centres undefined),-0.8,0,0,9,-3,4,4540
O=C(COc1ccccc1)NCC1(N2CCCCC2)CCCCC1,-0.6,-7,11,0,6,11,4718
C[N+]1(C)CCC(=C2c3ccccc3CC(=O)c3sccc32)CC1,4.5,-56,-8,-1,0,-5,5020
CC1(C)CN(c2ccc(C(=O)c3ccccc3)cc2)C1=O,5.0,-7,7,-4,-6,9,4718

# Filtered by structure, the compounds so far with a cyano group (2)
SMILES,RN4220 kill,PrP UTR inh,BJeLR viability,Mtb hypoxia rep,Mtb hypoxia rep growth,ugtP null kill,Autofluor counter
Cn1cc(CC(=O)Nc2cccc(C#N)c2)c2ccccc21,-0.7,2,4,x,x,-1,2890
Cc1cccc(CSc2nc3c(c(-c4cccs4)c2C#N)CN(C)CC3)c1,0.4,-22,3,9,6,24,2183

# Some of the entries so far, tab-delimited.
canonical_smiles	RN4220 kill	PrP UTR inh	BJeLR viability	Mtb hypoxia rep	Mtb hypoxia rep growth	ugtP null kill	Autofluor counter
O=C(COc1ccccc1)NCC1(N2CCCCC2)CCCCC1	-0.6	-7	11	0	6	11	4718
C[N+]1(C)CCC(=C2c3ccccc3CC(=O)c3sccc32)CC1	4.5	-56	-8	-1	0	-5	5020
CC1(C)CN(c2ccc(C(=O)c3ccccc3)cc2)C1=O	5.0	-7	7	-4	-6	9	4718

# Next section:
SMILES,RN4220 kill,PrP UTR inh,BJeLR viability,Mtb hypoxia rep,Mtb hypoxia rep growth,ugtP null kill,Autofluor counter
CCOc1ccc(CN(C)C(=O)c2ccc(S(=O)(=O)N(C)c3ccccc3OC)cc2)cc1,3.6,-10,x,21,48,11,6579
CN(C(=O)CSc1nc2sc3c(c2c(=O)n1C)CCC3)C1CCS(=O)(=O)C1 (centres undefined),2.9,-11,x,0,2,8,3825
CC(=O)OCc1nc2sc(C)c(C)c2c(=O)[nH]1,2.3,-22,3,x,x,9,3863
Nc1nonc1C(=O)NN=Cc1ccc(-c2cccc(C(=O)O)c2)o1,-0.1,x,x,13,4,6,x
CCN(c1ccccc1)S(=O)(=O)c1ccc(N)c(OC)c1,5.8,-5,4,7,-9,3,3750
COc1ccc(Cl)cc1NC(=O)CN(C)CC(=O)Nc1ccccc1C(F)(F)F,9.7,-19,2,13,5,5,4080
Cc1cccc(-n2c(=O)cc(N3CCN(c4ccc(F)cc4)CC3)[nH]c2=O)c1,-0.7,-6,5,-7,2,6,5557
COCCn1nnnc1CN1CCSCC1,6.4,-27,1,16,10,10,4138
COc1ccc2c(c1)CCc1c(C(=O)NCc3ccc(F)cc3)noc1-2,9.6,-8,-6,-1,-2,-9,5523
Cc1ccc(C2CC=C(C(=O)O)C(c3ccc(F)cc3)N2S(=O)(=O)c2ccc(C)cc2)cc1 (centres undefined),21,x,x,-1,-6,24,x
COc1ccc(NS(=O)(=O)c2cn(C)cn2)cc1OC,-1.9,-6,15,-4,0,-6,5264
CC(C)C[C@H](NC(=O)[C@@H]1Cc2ccccc2CN1C(=O)OC(C)(C)C)C(=O)NCC1CCC(C(=O)O)CC1 (some centres undefined),2.4,-8,0,-4,4,11,5039
CCOc1ccccc1N(C(C)=O)S(=O)(=O)c1ccc(Cl)cc1,7.3,-26,-3,16,-3,0,6992
COc1ccc(C=O)cc1OC1C=CCCC1 (centres undefined),2.4,-21,-4,12,5,5,3906
CCN(CC)CCN(C(=O)c1ccc([N+](=O)[O-])cc1)c1nc2ccc(OC)cc2s1,4.9,-1,5,7,0,10,x
COCCCn1c(SCC(=O)NC(C)C)nnc1-c1ccccc1,0.3,-1,-3,11,6,14,3462
Cc1ccc(-n2cnnn2)c2cccnc12,1.2,-12,-5,4,-4,13,7045
CC(=O)N=C1SC2CS(=O)(=O)CC2N1c1cccc(Cl)c1Cl (centres undefined),-3.4,-11,0,x,x,2,4706
C#CCn1c(=NC(=O)c2ccco2)sc2cccc(Cl)c21,6.5,-15,-17,17,5,-4,4606
COc1cccc(NC(=O)CNC(=O)c2ccc(F)cc2)c1,1.6,-14,1,x,x,0,2362
CC(C)(C)c1ccc(OCCSc2nc3ccccc3n2CC(=O)O)cc1,4.0,0,-2,10,-3,6,3489
O=C(c1cccc(Cl)c1)N1CCN(Cc2c[nH]c3ccccc23)CC1,3.6,-19,-8,4,4,-1,4465
CCNC(=O)CSc1nnc(-c2ccc(OC)cc2)n1CC(C)C,4.8,-24,-5,9,9,-9,21420*
CCOCc1nnc(NC(=O)C2CCN(C(=O)C3CC(=O)N(c4ccc(C)cc4)C3)CC2)s1 (centres undefined),-3.3,-9,-10,-13,6,4,5722
O=[N+]([O-])c1ccc(NN=Cc2cccnc2)nc1,8.3,x,x,8,-2,13,x
O=C(CCc1nnc(COc2ccccc2)o1)NCc1ccccc1C(F)(F)F,4.2,-20,-5,-8,-13,3,4996
CCN(Cc1ccccc1)S(=O)(=O)c1ccc(OC)c2ncccc12,4.8,-18,-4,8,4,5,4688
O=c1[nH]c(/C=C/c2ccc3c(c2)OCO3)c([N+](=O)[O-])c(=O)[nH]1,0.9,x,-1,10,17,1,x
CCc1ccc(NC(=O)C2CCN(S(=O)(=O)c3c(C)noc3C)CC2)cc1,0.2,-23,-2,6,1,1,5660
O=C(O)c1ccc(NN=C2CCCc3ccccc32)cc1,1.3,x,x,8,-2,-1,x
Cc1ccc(NS(=O)(=O)c2ccc(-n3cccn3)cc2)nc1,3.1,-6,0,4,3,4,5060
O=C(Cn1cc2c(n1)CCCC2)NCc1cccc(Cl)c1,-1.7,1,2,x,x,1,5899
Cc1cc(C)c(C(=O)CN2CCOCC2)c(C)c1,-0.2,0,-7,x,x,2,2391
Cc1c(O)c(CN(C)C)cc2c1oc(=O)c1ccccc12,3.4,-12,0,-1,1,4,5478
COCCOC(=O)C1=C(C)NC(=O)N(C(C)=O)C1c1ccc(Cl)cc1 (centres undefined),6.2,-17,3,1,-2,4,11524
Cn1c(SCC(=O)Nc2ccccc2[N+](=O)[O-])nnc1C(F)(F)F,8.0,-7,6,16,12,7,3745
Cc1cccc(NC(=O)c2cc3ccccc3nc2C)c1,4.0,-10,8,19,7,3,3974
CN(c1ccccc1C(=O)N1CCN(c2cccc(Cl)c2)CC1)S(C)(=O)=O,5.6,x,-13,-2,11,3,13045
OCC[C@@H]1C[C@@H](O)[C@H](O)[C@@]2(CCCO2)O1,-11,5,-1,8,7,-4,3838
COc1cc2[nH]c(=O)n(-c3ccc(C)cc3)c(=O)c2cc1OC,3.4,-12,2,2,3,-1,3902
Cc1ccccc1-n1c(SC(C)C(=O)N2CCN(C)CC2)nc2ccccc2c1=O (centres undefined),-2.7,-12,3,-14,-5,-3,11356
COc1ccccc1NC(=S)NC1CCCC1,3.4,-18,2,-2,10,9,4671
CN(C)c1nc(OCCNC(=O)Nc2ccccc2)nc(N2CCCCC2)n1,3.1,-23,-15,5,6,2,4164
CC(O)C1CN=C(N)N1CCc1cc(C(F)(F)F)cc(C(F)(F)F)c1 (centres undefined),2.4,x,x,-4,4,2,x
CCN1CCN(c2ccc(NC(=O)c3ccc4c(c3)OCO4)cc2)CC1,6.4,-16,7,2,8,11,16331*
CCOC(=O)C1(CCc2ccccc2)CCN(C(=O)CCn2cncn2)CC1,8.4,81*,-2,8,3,-3,4446

# Rows are unselected; about 4% have a hit in one of these screens.
